High-throughput results deposited in PubChem by National Center for Advancing Translational Sciences (NCATS).
Vaccinia Venus: qHTS for Stage-Specific Inhibitors of Vaccinia Orthopoxvirus: Venus Reporter Primary qHTS; Vaccinia virus Venus reporter expression, fluorescence; Potency, µM (titrated, usually from 36.5 µM), for inactives: at the highest dose activity change, negative = inhibition, hits mostly inhibitors; hit rate 0.46% among 330,000; AID 720580, 2013; active means well fitted inhibition curve with a large enough effect; inconclusive means small, poorly fitted or top-dose-only effect; inactive means no such curve, though single readings can be large or run the other way; tested in A549 cells; note: nearly all actives have a fitted effect of over 30% in size; inactives centre near -10
VACV mCherry inh: qHTS for Stage-Specific Inhibitors of Vaccinia Orthopoxvirus: mCherry Reporter Primary qHTS; Vaccinia virus mCherry reporter infection, fluorescence; about a quarter of the inactives have no number; Potency, µM (doses to about 36.5 µM), for the others: at the top dose activity change, negative = inhibition, hits mostly inhibitors; hit rate 0.63% among 310,000; AID 720579, 2013; active = well fitted inhibition curve with a large enough effect; inconclusive = small, poorly fitted or top-dose-only effect; inactive = no such curve, though single readings can be large or run the other way; tested in A549 cells; note: nearly all actives have a fitted effect of over 35% in size; inactives centre near -10
The depositor's hits bear a star; & = joins results of further samples; [ ] = dose if it differs, or a comment. % is set by controls: 0 for no effect and ±100 for the full control effect; potency is the fitted concentration of half-maximal effect.

For CS(=O)(=O)c1ccc(-c2cccc(NC(=O)c3ccc(Br)o3)c2)nn1 the results were Vaccinia Venus -10.5% and VACV mCherry inh -2.9%.
Screening Cc1ccc(C)c(S(=O)(=O)NCCCc2ccccc2)c1 returned Vaccinia Venus -13.4% and VACV mCherry inh -11.2%.
For CCCOc1cccc(C(=O)NCCNC(=O)c2ccc(C)nc2)c1 the results were Vaccinia Venus -1.7% and VACV mCherry inh -10.9%.
For Cc1cc(SCC(=O)N/N=C/c2cccnc2)nc2c(C)cccc12 the results were Vaccinia Venus -9.9% and VACV mCherry inh -14.8%.
For COc1ccc([N+](=O)[O-])cc1NC(=O)CC1SC(=Nc2cccc(C)c2C)N(/N=C/c2cccc(OC)c2OC)C1=O (stereo not drawn) the results were Vaccinia Venus 1.6%&-6.9% and VACV mCherry inh -21.5%.
For COc1ccc(NC(=O)/C(N=Nc2ccc(Cl)c(S(=O)(=O)Nc3ccc(Cl)cc3)c2)=C(\C)O)cc1 the results were Vaccinia Venus 6.7% and VACV mCherry inh -18.8%.
COc1ccc(-c2nn(-c3ccccc3)cc2/C=C2/SC(=S)N(CCC(=O)O)C2=O)c(C)c1 was read as Vaccinia Venus -13.7% and VACV mCherry inh inactive.
Screening COc1cccc(CC2(CO)CCCN(Cc3cc(F)ccc3-n3cccn3)C2)c1 (stereo not drawn) returned Vaccinia Venus -23.3% and VACV mCherry inh -17.4%.
`COc1ccc(C2C(C#N)=C(N)OC3=C2C(=O)CCC3)c(OC)c1OC` (stereo not drawn) gave Vaccinia Venus -6.2% and VACV mCherry inh -10.3%.
Screening O=C1CCCC(O)=C1C1NCCc2ccccc21 (stereo not drawn) returned Vaccinia Venus -10.3% and VACV mCherry inh inactive.

Of the compounds above, 3 have a halogen.
For CS(=O)(=O)c1ccc(-c2cccc(NC(=O)c3ccc(Br)o3)c2)nn1 the results were Vaccinia Venus -10.5% and VACV mCherry inh -2.9%.
For COc1ccc(NC(=O)/C(N=Nc2ccc(Cl)c(S(=O)(=O)Nc3ccc(Cl)cc3)c2)=C(\C)O)cc1 the results were Vaccinia Venus 6.7% and VACV mCherry inh -18.8%.
Screening COc1cccc(CC2(CO)CCCN(Cc3cc(F)ccc3-n3cccn3)C2)c1 (stereo not drawn) returned Vaccinia Venus -23.3% and VACV mCherry inh -17.4%.

The results go on:
For Cc1ccc(/C=N/NC(=O)C2=NNC(c3ccccc3)(c3ccccc3)C2)c(O)c1 the results were Vaccinia Venus inconclusive.
`COc1ccccc1CCC(=O)OCC(=O)Nc1c(Br)cc(C)cc1Br` gave Vaccinia Venus -1.1% and VACV mCherry inh inactive.
Screening Cn1ccnc1SCc1nc2c(cnn2-c2ccccc2)c(=O)[nH]1 returned Vaccinia Venus 8.9% and VACV mCherry inh inactive.
`Cn1c(CSCc2ccc(Cl)cc2Cl)n[nH]c1=S` gave Vaccinia Venus -14.3% and VACV mCherry inh -10.5%.
For CSc1nc(-c2ccccc2)nn1C(=O)c1ccc(Cl)cc1 the results were Vaccinia Venus -10.4% and VACV mCherry inh -18.4%.
O=C1CCC([N+](=O)[O-])C(c2ccc(Cl)c([N+](=O)[O-])c2)N1 (stereo not drawn) was read as Vaccinia Venus -1.1% and VACV mCherry inh 9.7%.
CC(C)OCc1ccc(C(=O)N2CCN(CC(=O)N3CCCC3)CC2)cc1 was read as Vaccinia Venus 3.3% and VACV mCherry inh -5.9%.
O=C(CN1C(=O)c2ccccc2C1=O)c1ccc(F)cc1 was read as Vaccinia Venus -5.8% and VACV mCherry inh -9.4%.
Screening O=C(/C=C/c1cccc(C(F)(F)F)c1)Nc1cccc(C(F)(F)F)c1 returned Vaccinia Venus inconclusive and VACV mCherry inh inconclusive.
`CSc1ccc(N2C(=O)NC3(CCCCC3)C2=O)cc1` gave Vaccinia Venus -12.3% and VACV mCherry inh inactive.

Reprinted from the part before: three compounds, followed by the next part.
O=C(CN1C(=O)c2ccccc2C1=O)c1ccc(F)cc1 was read as Vaccinia Venus -5.8% and VACV mCherry inh -9.4%.
Screening O=C(/C=C/c1cccc(C(F)(F)F)c1)Nc1cccc(C(F)(F)F)c1 returned Vaccinia Venus inconclusive and VACV mCherry inh inconclusive.
`CSc1ccc(N2C(=O)NC3(CCCCC3)C2=O)cc1` gave Vaccinia Venus -12.3% and VACV mCherry inh inactive.
Screening O=C(Nc1ccccc1-c1ccccc1)NC1CCN(CC(=O)N2CCOCC2)CC1 returned Vaccinia Venus -7.1% and VACV mCherry inh -19.3%.
`Cc1ccc2c(c1)N(C(=O)CCC(=O)Nc1ccccc1Br)CC(C)O2` (stereo not drawn) gave Vaccinia Venus 1.0% and VACV mCherry inh 18.3%.
CCCCOc1ccc(C(=O)N2CCCCCC2)cc1 was read as Vaccinia Venus -9.0% and VACV mCherry inh -15.9%.
`O=C(c1ccccc1Sc1cccc2ccccc12)N1CCOCC1` gave Vaccinia Venus -17.2% and VACV mCherry inh inconclusive.
For CCOc1ccc(OCc2ccc(C(=O)Nc3cccc(C)n3)o2)cc1 the results were Vaccinia Venus -10.8% and VACV mCherry inh inactive.
Screening COc1ccc(Br)cc1CNC(=O)CN1C(=O)CCCc2ccccc21 returned Vaccinia Venus 10.3% and VACV mCherry inh -1.1%.
`O=C(NCc1cccnc1)C(=O)NCC1OCCCN1S(=O)(=O)c1ccc(Cl)cc1` (stereo not drawn) gave Vaccinia Venus -12.5% and VACV mCherry inh inactive.
`CC(C)Oc1c(Br)cc(Br)cc1/C=N/NC(N)=S` gave Vaccinia Venus 5.01µM* and VACV mCherry inh 3.98µM*.
Screening Cc1n[nH]c(=O)n1-c1ccc(OCc2ccccc2)cc1 returned Vaccinia Venus -2.3% and VACV mCherry inh inactive.
Cc1ccc(C)c(CN2C(=O)c3ccccc3S(=O)(=O)c3ccc(C(=O)Nc4cc(F)ccc4F)cc32)c1 was read as Vaccinia Venus -11.6% and VACV mCherry inh -10.1%.
`Cc1ccc(NC(=O)c2c(C)nn(-c3ccccc3)c2Cl)cc1` gave Vaccinia Venus -12.0% and VACV mCherry inh -16.2%.
Screening Cc1ncc2c(c1CNC(=O)c1cncs1)CCN(C(=O)c1ccc(C(F)(F)F)cc1)C2 returned Vaccinia Venus -0.8% and VACV mCherry inh -7.4%.
For CCC(CC)c1nn2c(=O)cc(COc3ccc(NC(=O)c4ccccc4C)cc3)nc2s1 the results were Vaccinia Venus -4.8% and VACV mCherry inh inconclusive.
For CC12C=CC(=O)CC1CCC1C2CCC2(C)C(O)C(O)CC12 (stereo not drawn) the results were Vaccinia Venus -14.5% and VACV mCherry inh -18.9%.
`COC1C(O)CC(=O)OC(C)C/C=C/C=C/[C@@H](OC2CCC(N(C)C)C(C)O2)C(C)C[C@@H](CC=O)[C@@H]1O[C@H]1OC(C)[C@H](O[C@@H]2C[C@@](C)(O)C(O)C(C)O2)C(N(C)C)C1O` (stereo partly drawn) gave Vaccinia Venus -9.5% and VACV mCherry inh -18.0%.
`Cc1cc(NS(=O)(=O)c2ccc(NC(=S)NC(=O)c3cccnc3)cc2)no1` gave Vaccinia Venus -7.2% and VACV mCherry inh inactive.
For Cc1nn(C)c(C)c1CS(=O)(=O)c1ccccc1 the results were Vaccinia Venus -5.2% and VACV mCherry inh -18.8%.
`COc1ccc(C2CC(=O)c3cnc4c(-c5ccc(F)cc5)c(C)nn4c3C2)cc1OC` (stereo not drawn) gave Vaccinia Venus inconclusive and VACV mCherry inh inconclusive.
For CC(=O)OCC(=O)C1(O)CCC2C3CC(C)C4=CC(=O)CCC4(C)C3C(O)CC21C (stereo not drawn) the results were Vaccinia Venus 0.1% and VACV mCherry inh inactive.
Cc1cnc([N+](=O)[O-])n1CCOC(=O)c1cccc(F)c1 was read as Vaccinia Venus 1.0% and VACV mCherry inh -7.0%.
For O=C(C1=C(O)C(=O)N(Cc2ccco2)C1c1cccc(Cl)c1)c1ccco1 (stereo not drawn) the results were Vaccinia Venus 0.0% and VACV mCherry inh inactive.
Cc1cccc(N2CCN(C3=C(c4ccccc4)C(=O)c4ccccc43)CC2)c1C was read as Vaccinia Venus -11.5% and VACV mCherry inh -12.7%.
Screening Cc1cc(=O)n(CCCO)c(O)c1C#N returned Vaccinia Venus 3.3%.
COc1ccccc1Nc1nc2c(s1)CCC2 was read as Vaccinia Venus 8.0%.
Screening CC(=O)c1noc(C)c1C(=O)Nc1nccs1 returned Vaccinia Venus 0.4% and VACV mCherry inh -5.4%.
For COc1ccc(NC(=O)c2cc(-c3cc(Cl)ccc3O)n[nH]2)c(OC)c1 the results were Vaccinia Venus -8.7% and VACV mCherry inh inactive.
Screening O=C(NCc1ccccn1)c1ccc(Cl)s1 returned Vaccinia Venus -1.7% and VACV mCherry inh inactive.
Screening O=C(Nc1ccc2c(c1)CCC2)c1cc2ccccc2o1 returned Vaccinia Venus -16.1% and VACV mCherry inh -17.6%.
CCc1cc2c3c(c(=O)oc2cc1O)CCCC3 was read as Vaccinia Venus -12.6% and VACV mCherry inh -20.2%.
`NC(=O)[C@@H]1CCCN1C(=O)c1ccc2nc(Cc3ccccc3F)oc2c1` gave Vaccinia Venus -0.8% and VACV mCherry inh inactive.
COc1ccc2cc(C(=O)C3CCCN(C(=O)c4cc(=O)n(C)c(=O)n4C)C3)ccc2c1 (stereo not drawn) was read as Vaccinia Venus -11.1% and VACV mCherry inh inactive.
`CN1C(=O)C(CC(=O)Nc2ccc3c(c2)Cc2ccccc2-3)N(C)C1=O` (stereo not drawn) gave Vaccinia Venus inconclusive.
CN(C)S(=O)(=O)c1cccc(NC(=O)/C=C/c2ccc(S(=O)(=O)N3CCOCC3)cc2)c1 was read as Vaccinia Venus -19.1% and VACV mCherry inh -13.5%.
COc1ccc2[nH]c3c(c2c1)CCN1C(=O)C(CC(=O)NCCCn2ccnc2)C[C@H](C(=O)N2CCCCC2)[C@@]31C (stereo partly drawn) was read as Vaccinia Venus -1.7% and VACV mCherry inh inactive.
For CCc1ccc(OCCCC(=O)Nc2ccc(N3CCCCC3)cc2)cc1 the results were Vaccinia Venus -7.2% and VACV mCherry inh -7.2%.
For CN(C(=O)/C=C/c1ccco1)c1ccccc1C(=O)O the results were Vaccinia Venus 15.3%[7.34 µM] and VACV mCherry inh 14.5%[7.34 µM].
For CCc1nc2c(OCC(=O)c3ccc(F)cc3)cccn2c1N(C)C(=O)c1ccccc1F the results were Vaccinia Venus -10.4% and VACV mCherry inh inactive.
`O=C(CCNC(=O)c1ccc(Cl)cc1)Nc1ccc(F)cc1F` gave Vaccinia Venus -14.9% and VACV mCherry inh inactive.
`Cc1ccc(-c2ccc(/C=C(\C#N)C(N)=S)o2)c([N+](=O)[O-])c1` gave Vaccinia Venus -7.0% and VACV mCherry inh -20.0%.
Screening O=C(COC(=O)c1ccco1)Nc1ccccc1 returned Vaccinia Venus -7.0%.

For reference, two of the compounds above.
`Cc1ccc(-c2ccc(/C=C(\C#N)C(N)=S)o2)c([N+](=O)[O-])c1` gave Vaccinia Venus -7.0% and VACV mCherry inh -20.0%.
Screening O=C(COC(=O)c1ccco1)Nc1ccccc1 returned Vaccinia Venus -7.0%.

Later entries:
COc1ccc(Nc2ccc(S(=O)(=O)N3CCCCC3)cc2[N+](=O)[O-])cc1OC was read as Vaccinia Venus -29.1% and VACV mCherry inh inconclusive.
Screening O=C(CN1CCN(S(=O)(=O)N2CCOCC2)CC1)Nc1ccc(Cl)c(Cl)c1 returned Vaccinia Venus -19.0% and VACV mCherry inh -13.0%.
`OCc1ccc2c(c1)c(-c1ccc3c(c1)OCCO3)c(-c1ccccc1)n2-c1ccccc1` gave Vaccinia Venus inconclusive and VACV mCherry inh -18.8%.
Screening CCC1=NN2C(=N)/C(=C\c3cccn3-c3ccc(OC)cc3)C(=O)N=C2S1 returned Vaccinia Venus -8.2% and VACV mCherry inh inactive.
`CCN(C(=O)Cn1c(=O)n2nc(CCn3nc(C)cc3C)nc2c2ccccc21)c1cccc(C)c1` gave Vaccinia Venus -8.2% and VACV mCherry inh -5.5%.
`CCn1nc(C)c2c(-c3ccccc3)cc(=O)n(C(C)C(=O)Nc3cccc(F)c3)c21` (stereo not drawn) gave Vaccinia Venus -6.1% and VACV mCherry inh -11.0%.
For Cc1ccc(C)c(NC(=O)CSc2c(C)cnc3c2c(=O)n(C)c(=O)n3C)c1 the results were Vaccinia Venus -11.2% and VACV mCherry inh 0.5%.
Screening Cc1cc(C)cc(NC(=O)C2CCN(C(=O)c3cnn(-c4ccccc4)c3-n3cccc3)CC2)c1 returned Vaccinia Venus -12.7% and VACV mCherry inh -23.2%.
Screening CCCCn1c(N)c(N(Cc2ccccc2OC)C(=O)CCC(C)C)c(=O)[nH]c1=O returned Vaccinia Venus 0.8% and VACV mCherry inh -3.7%.
COc1ccc(C(=O)N(C)C2(C)CCS(=O)(=O)C2)cc1OC (stereo not drawn) was read as Vaccinia Venus 0.3% and VACV mCherry inh inactive.
`CC1CCCN(CCCNC(=O)c2ccc3c(c2)N(Cc2ccc(Cl)cc2)C(=O)c2ccccc2S3(=O)=O)C1` (stereo not drawn) gave Vaccinia Venus -25.0% and VACV mCherry inh -25.1%.
Screening CC(C)(C)OC(=O)N1CCC(NC(=O)c2[nH]c(C(F)(F)F)nc2-c2ccccc2)CC1 returned Vaccinia Venus 6.8% and VACV mCherry inh 33.2%[activator].
O=C(NCC(c1ccc(F)cc1)N1CCOCC1)c1cccnc1Sc1ccccc1 (stereo not drawn) was read as Vaccinia Venus -9.3% and VACV mCherry inh inactive.
COc1ccccc1NC(=O)CSc1nnnn1-c1ccc2c(c1)OCO2 was read as Vaccinia Venus -8.6% and VACV mCherry inh -5.4%.
